Vaccinia stage: Vaccinia orthopox stage-specific inhibition. activity change (mCherry), % (no concentration beside the values). Vaccinia-infected cells, mCherry/Venus stage reporter fluorescence; active compounds read low; some inactives read as strong as hits. AID 1053133. actives 0.01% (n = 89,000);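 active means mCherry past -33% and 40 or more points under the early reporter, replicates agreeing; inconclusive means past -33% without that gap or agreement; tested in A549 cells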;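 further: scaled between vehicle wells and reference inhibitor wells; 23 nL library stock went into each well; one replicate is shown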
Vaccinia stage Venus: further read-out of Vaccinia stage, marked with its call; activity change (Venus), %; measured here: Venus reporter, other viral stage;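 negative = less Venus signal; first of two replicates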
* hit, by the source's call; u = inconclusive; x = no result given; & = joins results of further samples.

Preview:
SMILES	Vaccinia stage	Vaccinia stage Venus
C[C@H](CO)N1C[C@H](C)[C@H](CN(C)C(=O)NC2CCCCC2)Oc2c(NC(=O)C3CCOCC3)cccc2C1=O	-3	-5
Cc1noc(C)c1S(=O)(=O)Nc1ccc2c(c1)C(=O)N([C@H](C)CO)C[C@@H](C)[C@@H](CN(C)C(=O)NC1CCCCC1)OCCCC[C@H](C)O2	-14	-9
O=C(C[C@@H]1C[C@H]2c3cc(NC(=O)C4CCC4)ccc3O[C@H]2[C@@H](CO)O1)NCC1CC1	0	-1
CO[C@@H]1CN(C)C(=O)c2ccc(NC(=O)C3CCC3)cc2OC[C@H](C)N(C(=O)NC(C)C)C[C@@H]1C	-17	-20
COc1ccc2c3c(n(C)c2c1)[C@@H](CO)N(C(=O)C1CCC1)CC31CN(C)C1	5	10
Cc1ccc(S(=O)(=O)N(C)C[C@@H]2Oc3ncc(C#CCN(C)C)cc3C(=O)N([C@H](C)CO)C[C@@H]2C)cc1	-2	-4
C/C=C/c1ccc2c(c1)O[C@@H](CN(C)C(=O)NC(C)C)[C@@H](C)CN([C@@H](C)CO)S2(=O)=O	11	7
C[C@H]1CN([C@@H](C)CO)C(=O)c2cc(NC(=O)CCN3CCOCC3)ccc2O[C@@H]1CN(C)CC1CCCCC1	15	5
CC(C)(C)[S@@](=O)N1Cc2cc(C(=O)N3CCCCC3)nc(-c3cccc(-c4cccc(C#N)c4)c3)c2[C@H]1CCO	5	13
CS(=O)(=O)N1[C@H](C#N)[C@H](c2ccc(C#Cc3cccc(F)c3)cc2)[C@H]1CO	-21	-19

Results, repeating the preview:
SMILES	Vaccinia stage	Vaccinia stage Venus
C[C@H](CO)N1C[C@H](C)[C@H](CN(C)C(=O)NC2CCCCC2)Oc2c(NC(=O)C3CCOCC3)cccc2C1=O	-3	-5
Cc1noc(C)c1S(=O)(=O)Nc1ccc2c(c1)C(=O)N([C@H](C)CO)C[C@@H](C)[C@@H](CN(C)C(=O)NC1CCCCC1)OCCCC[C@H](C)O2	-14	-9
O=C(C[C@@H]1C[C@H]2c3cc(NC(=O)C4CCC4)ccc3O[C@H]2[C@@H](CO)O1)NCC1CC1	0	-1
CO[C@@H]1CN(C)C(=O)c2ccc(NC(=O)C3CCC3)cc2OC[C@H](C)N(C(=O)NC(C)C)C[C@@H]1C	-17	-20
COc1ccc2c3c(n(C)c2c1)[C@@H](CO)N(C(=O)C1CCC1)CC31CN(C)C1	5	10
Cc1ccc(S(=O)(=O)N(C)C[C@@H]2Oc3ncc(C#CCN(C)C)cc3C(=O)N([C@H](C)CO)C[C@@H]2C)cc1	-2	-4
C/C=C/c1ccc2c(c1)O[C@@H](CN(C)C(=O)NC(C)C)[C@@H](C)CN([C@@H](C)CO)S2(=O)=O	11	7
C[C@H]1CN([C@@H](C)CO)C(=O)c2cc(NC(=O)CCN3CCOCC3)ccc2O[C@@H]1CN(C)CC1CCCCC1	15	5
CC(C)(C)[S@@](=O)N1Cc2cc(C(=O)N3CCCCC3)nc(-c3cccc(-c4cccc(C#N)c4)c3)c2[C@H]1CCO	5	13
CS(=O)(=O)N1[C@H](C#N)[C@H](c2ccc(C#Cc3cccc(F)c3)cc2)[C@H]1CO	-21	-19
C[C@@H]1CN([C@H](C)CO)C(=O)c2cc(NS(=O)(=O)c3ccc(F)cc3)ccc2O[C@@H](C)CCCCO[C@@H]1CN(C)C(=O)c1ccccc1	u	x
CCC(=O)N[C@@H]1CC[C@H](CCn2cc(CN(C)C)nn2)O[C@H]1CO	6	7
CO[C@H]1CN(C)C(=O)c2cc(NS(C)(=O)=O)ccc2OC[C@@H](C)NC[C@@H]1C	15	0
COc1ccc(S(=O)(=O)N2CCCCN3[C@H](CO)[C@H](c4ccc(C5=CCCCC5)cc4)[C@H]3C2)cc1	u	x
CCCNC(=O)N1[C@H](CN(C)C(C)=O)[C@@H](c2ccc(C3=CCCC3)cc2)[C@@H]1CO	12	13
COc1ccc(S(=O)(=O)Nc2ccc3c(c2)CC(=O)N([C@H](C)CO)C[C@H](C)[C@H](CN(C)C(=O)NC2CCCCC2)O3)cc1	32	20
COc1ccc(S(=O)(=O)N(C)C[C@H]2Oc3ccc(NS(=O)(=O)c4cn(C)cn4)cc3CC(=O)N([C@H](C)CO)C[C@@H]2C)cc1	-5	-4
CO[C@H]1CN(C)C(=O)c2cc(NC(C)=O)ccc2OC[C@H](C)N(C(=O)CN2CCOCC2)C[C@@H]1C	23	16
COc1ccc(C#Cc2ccc3c(c2)O[C@H](CN(C)C(=O)NC2CCCCC2)[C@@H](C)CN([C@@H](C)CO)S3(=O)=O)cc1	u	x
C[C@@H]1CN([C@@H](C)CO)C(=O)c2cc(NS(=O)(=O)c3cccs3)ccc2O[C@@H]1CN(C)Cc1ccc(C(F)(F)F)cc1	u	x
O=C(C[C@@H]1CC[C@H]2[C@@H](COC[C@H](O)CN2C(=O)Nc2cccc(F)c2)O1)NCCCN1CCOCC1	5	4
CC(=O)NC[C@@H]1[C@@H](c2ccccc2)[C@H](CO)N1C(=O)Cc1cccnc1	11	7
C[C@@H]1CN([C@@H](C)CO)C(=O)CCCn2nncc2CO[C@H]1CN(C)C(=O)c1ccc(N2CCN(C)CC2)cc1	3&4	1&8
CNC(=O)C[C@H]1CC[C@H]2[C@@H](COc3ccc(NC(=O)NC4CCCC4)cc3C(=O)N2C)O1	12	16
Cc1noc(C)c1S(=O)(=O)Nc1ccc2c(c1)C(=O)N([C@@H](C)CO)C[C@H](C)[C@@H](CN(C)S(=O)(=O)c1ccccc1)OCCCC[C@H](C)O2	-24	-17
Further compounds follow:
SMILES	Vaccinia stage	Vaccinia stage Venus
O=C(C[C@H]1CC[C@@H]2[C@H](COC[C@H](O)CN2C(=O)Nc2ccc(Cl)cc2)O1)NCCc1ccncc1	-22	-13
COc1cccc(-c2ccc([C@@H]3[C@@H](CO)N4C(=O)CNC[C@H]34)cc2)c1	-2	-5
COC(=O)C[C@H]1CC[C@H]2[C@@H](COc3ccc(NS(=O)(=O)c4ccccc4Cl)cc3C(=O)N2C)O1	12	4
CN1c2ccc(C#Cc3cccnc3)cc2[C@@H]2[C@@H](CCN2S(=O)(=O)c2ccccc2)[C@H]1CO	4	1
COc1cccc(NC(=O)N[C@H]2C=C[C@H](CC(=O)N3CCCCC3)O[C@@H]2CO)c1	7	1
C[C@@H]1CN([C@H](C)CO)C(=O)c2cc(NC(=O)Cc3cn(C)c4ccccc34)ccc2O[C@@H]1CN(C)S(=O)(=O)c1cn(C)cn1	9	3
COc1ccccc1C(=O)Nc1ccc2c(c1)C(=O)N(C)C[C@@H](OC)[C@@H](C)CN(C)[C@H](C)CO2	3	0
CCO[C@H]1OC(C(=O)NC2CC2)=C[C@@H](c2ccccc2)[C@@H]1CCCO	-4	7
COc1ccccc1NC(=O)N[C@@H]1CC[C@H](CCNC(=O)c2ccc3c(c2)OCO3)O[C@@H]1CO	-1	-4
C[C@@H]1CCCCO[C@@H](CN(C)S(=O)(=O)c2ccc(F)cc2)[C@H](C)CN([C@H](C)CO)C(=O)c2cc(NC(=O)Nc3cccc4ccccc34)ccc2O1	0	13
COc1ccc(S(=O)(=O)Nc2cccc3c2O[C@H](CN(C)S(C)(=O)=O)[C@H](C)CN([C@@H](C)CO)C3=O)cc1	-5	7
CNC[C@H]1Oc2ccc(NC(=O)NC3CCCCC3)cc2CC(=O)N([C@H](C)CO)C[C@@H]1C	9	11
CC(C)NC(=O)Nc1ccc2c(c1)C(=O)N([C@H](C)CO)C[C@H](C)[C@@H](CN(C)S(C)(=O)=O)OCCCC[C@@H](C)O2	29	11
COc1ccccc1CN1[C@H](CO)[C@H]2c3ccccc3N(C(=O)c3cccnc3)C[C@H]21	4	4
O=C(C[C@H]1CC[C@H]2[C@@H](COC[C@@H](O)CN2CC2CCCC2)O1)NCC1CC1	-1	3
C[C@@H]1CN([C@@H](C)CO)C(=O)c2cc(-c3ccccc3)cnc2O[C@@H]1CN(C)Cc1ccccn1	4	7
COc1ccc2c3c(n(C)c2c1)[C@H](CO)N(C(=O)NC(C)C)CC31CN(CC2CC2)C1	-1	3
CCCNC(=O)N1CC2(CCN(C(=O)C3CCCC3)CC2)c2c([nH]c3cc(OC)ccc23)[C@H]1CO	-8	-6
C[C@H](CO)N1C[C@H](C)[C@H](CN(C)S(C)(=O)=O)OCCCC[C@H](C)Oc2ccc(NC(=O)CCCN(C)C)cc2C1=O	8	15
CN(C)CC#Cc1ccc([C@H]2[C@H]3CN(C(=O)Nc4ccccc4F)CCCCN3[C@H]2CO)cc1	4	0
Cc1ccc(S(=O)(=O)N[C@H]2C=C[C@@H](CC(=O)N3CCN(c4ccccc4)CC3)O[C@@H]2CO)cc1	-18	-14
O=C(C[C@@H]1C[C@@H]2c3cc(NC(=O)CC4CC4)ccc3O[C@@H]2[C@H](CO)O1)NCc1ccccc1	3	3
COc1ccc(CN(C)C[C@@H]2Oc3c(NC(=O)C4CCOCC4)cccc3C(=O)N([C@H](C)CO)C[C@H]2C)cc1	2	2
C[C@H](O)C#Cc1cnc2c(c1)C(=O)N([C@@H](C)CO)C[C@H](C)[C@@H](CN(C)C(=O)Cc1ccncc1)O2	14	6
C[C@H]1CN([C@@H](C)CO)C(=O)c2cc(NS(=O)(=O)c3cccs3)ccc2O[C@@H]1CN(C)S(=O)(=O)c1cn(C)cn1	13	6
Other compounds follow:
SMILES	Vaccinia stage	Vaccinia stage Venus
C[C@@H]1CCCCO[C@@H](CN(C)Cc2ccccc2)[C@H](C)CN([C@H](C)CO)C(=O)c2cc(NC(=O)Nc3ccc4c(c3)OCO4)ccc2O1	u	x
N#C[C@@H]1[C@H](c2ccccc2C2=CCCCC2)[C@H](CO)N1C(=O)NC1CCCCC1	-24	-14
C[C@@H]1CCCCO[C@@H](CN(C)C(=O)c2ccncc2)[C@H](C)CN([C@H](C)CO)C(=O)c2cc(NS(=O)(=O)c3ccccc3)ccc2O1	25	12
C[C@H](NC(=O)[C@@H]1[C@@H](CO)[C@@H]2Cn3c(cccc3=O)[C@H]1N2C(=O)C1CCC1)c1ccccc1	15	3
C=CCOC(=O)C1=C[C@@H](c2cn(C(C)=O)c3ccccc23)C[C@@H](OCc2ccc(CO)cc2)O1	-3	-5
COCC#Cc1cnc2c(c1)C(=O)N([C@@H](C)CO)C[C@H](C)[C@@H](CN(C)Cc1ccc(F)cc1)O2	11	0
O=C(C[C@@H]1C=C[C@H](NS(=O)(=O)c2ccc(F)cc2)[C@H](CO)O1)NCc1ccccc1F	9	12
C[C@@H]1CN([C@@H](C)CO)C(=O)c2cc(C#CC3CC3)cnc2O[C@H]1CN(C)C(=O)c1ccc(F)cc1	11	13
C[C@H]1CN([C@@H](C)CO)C(=O)c2cc(NC(=O)Nc3ccc(C(F)(F)F)cc3)ccc2O[C@H]1CN(C)CC1CC1	-33	-23
COc1ccc(NC(=O)N(C)C[C@H]2OCCCC[C@@H](C)Oc3ccc(NS(=O)(=O)c4ccc(F)cc4)cc3C(=O)N([C@@H](C)CO)C[C@H]2C)cc1	-2	-9
C[C@H](CO)N1C[C@H](C)[C@H](CN(C)C(=O)C2CCC2)Oc2ncc(-c3ccc(F)cc3)cc2C1=O	12	-2
Cc1ccc(-c2ccc([C@@H]3[C@@H](CO)N4CCCCN(S(=O)(=O)c5ccccc5C)C[C@H]34)cc2)cc1	u	x
COc1ccc(NC(=O)N[C@H]2CC[C@H](CCn3cc(-c4ccc(F)cc4)nn3)O[C@H]2CO)cc1	-6	-6
CC(C)NC(=O)Nc1ccc2c(c1)C(=O)N([C@H](C)CO)C[C@H](C)[C@H](CN(C)C(=O)Nc1ccc(F)cc1)OCCCC[C@H](C)O2	10	3
O=C(C[C@H]1CC[C@@H]2[C@H](COC[C@@H](O)CN2S(=O)(=O)c2cccc(Cl)c2)O1)Nc1ccc(-c2ccccc2)cc1	u	x
COc1ccc(S(=O)(=O)Nc2cccc3c2O[C@H](CN(C)CC2CCCCC2)[C@@H](C)CN([C@@H](C)CO)C3=O)cc1	16	10
C[C@H](CO)N1C[C@H](C)[C@H](CN(C)S(=O)(=O)c2cccs2)Oc2c(NC(=O)C3CCOCC3)cccc2C1=O	13	10
Cc1ccc(S(=O)(=O)N(C)C[C@H]2Oc3ccc(NC(=O)C4CCCCC4)cc3CC(=O)N([C@H](C)CO)C[C@@H]2C)cc1	-27	-20
CO[C@@H]1CN(C)C(=O)c2cc(NC(=O)c3ccccc3)ccc2OC[C@@H](C)N(C)C[C@H]1C	3	9
CN(C)C(=O)[C@H]1[C@H](CO)[C@H]2Cn3c(ccc(C4=CCCCC4)c3=O)[C@H]2N1Cc1ccccn1	5	12
Cc1noc(C)c1S(=O)(=O)N(C)C[C@@H]1Oc2c(NC(=O)c3nc4ccccc4s3)cccc2C(=O)N([C@@H](C)CO)C[C@@H]1C	1	2
O=C(C1CC1)N1CCCCN2[C@H](C1)[C@@H](c1ccc(C#CC3(O)CCCC3)cc1)[C@@H]2CO	11	12
Cc1noc(C)c1S(=O)(=O)Nc1ccc2c(c1)C(=O)N([C@H](C)CO)C[C@H](C)[C@H](CN(C)Cc1ccc(C(=O)Nc3ccccc3N)cc1)OCCCC[C@@H](C)O2	-7	10
O=C(Nc1ccc(F)cc1)N1CC(=O)N2[C@@H](CO)[C@@H](c3ccc(C#CC4CC4)cc3)[C@@H]2C1	-4	-11
COc1ccc2c3c(n(C)c2c1)[C@@H](CO)N(CC1CC1)CC31CN(S(=O)(=O)c2cn(C)cn2)C1	7	3
O=C(C[C@@H]1C=C[C@@H](NC(=O)Nc2ccccc2)[C@@H](CO)O1)NCc1cccc(F)c1	7	15
O=C(c1ccc(F)cc1)N1CC(=O)N2[C@H](CO)[C@@H](c3ccc(C#CC4CC4)cc3)[C@@H]2C1	-32	-22
CCCN1C[C@H](C)[C@@H](OC)CN(C)C(=O)c2ccc(NC(=O)c3cccc(F)c3)cc2OC[C@@H]1C	-34	-25

Screening data (PubChem)

The list is partial, so the mix of outcomes need not match the whole.
